PABP polyA inh: PABP-poly(A) binding inhibition; P11940; inhibition, % at 35 µM; 1% of 290,000 active; PABP-poly(A) RNA binding, fluorescence polarization;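 active = 50% or more with normal probe brightness, or confirmed in later tests; inconclusive = above 50% with abnormal brightness, or retests that disagree; inactive = below 50% or failed in later tests; about a fifth of its hits are not listed in these tables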;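 also: calls also rest on retests at 20 µM and on dose response follow-up; controls were probe without protein and protein plus probe with vehicle; some compounds called inactive have numbers as strong as hits; many hits fall short of the cut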
Target sequence (P11940 whole entry, looked up): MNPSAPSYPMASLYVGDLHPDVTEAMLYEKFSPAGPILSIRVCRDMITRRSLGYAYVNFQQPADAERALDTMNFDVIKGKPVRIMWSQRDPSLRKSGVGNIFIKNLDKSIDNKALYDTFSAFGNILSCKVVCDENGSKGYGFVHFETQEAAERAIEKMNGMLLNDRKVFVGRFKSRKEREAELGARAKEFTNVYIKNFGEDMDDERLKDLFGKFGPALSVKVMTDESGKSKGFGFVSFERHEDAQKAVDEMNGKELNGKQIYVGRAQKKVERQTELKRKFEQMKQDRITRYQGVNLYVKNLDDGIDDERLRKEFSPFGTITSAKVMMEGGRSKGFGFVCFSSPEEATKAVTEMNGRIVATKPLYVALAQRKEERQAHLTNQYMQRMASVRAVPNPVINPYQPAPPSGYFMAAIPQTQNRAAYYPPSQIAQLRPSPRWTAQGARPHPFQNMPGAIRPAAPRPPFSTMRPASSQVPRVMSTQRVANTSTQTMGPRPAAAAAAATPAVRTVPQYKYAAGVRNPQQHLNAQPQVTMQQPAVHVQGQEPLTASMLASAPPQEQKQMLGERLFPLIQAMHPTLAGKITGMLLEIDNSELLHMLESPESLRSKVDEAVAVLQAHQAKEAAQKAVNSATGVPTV
Rce1 inh: inhibitors of yeast Ras-converting enzyme | AID 2563 | 0.27% of 290,000 active | Q03530 | calls only | yeast membranes, quenched prenylated peptide cleavage fluorescence;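 active = fall in fluorescence gain of 50% or more versus controls, with final raw signal at or below 3038400; inconclusive = same 50% fall but final raw signal above 3038400; inactive = fall in fluorescence gain under 50%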;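 also: plate controls were neutral control wells for no effect and wells lacking membranes for full effect; tested at 10 µM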
Target sequence (Q03530 whole entry, looked up): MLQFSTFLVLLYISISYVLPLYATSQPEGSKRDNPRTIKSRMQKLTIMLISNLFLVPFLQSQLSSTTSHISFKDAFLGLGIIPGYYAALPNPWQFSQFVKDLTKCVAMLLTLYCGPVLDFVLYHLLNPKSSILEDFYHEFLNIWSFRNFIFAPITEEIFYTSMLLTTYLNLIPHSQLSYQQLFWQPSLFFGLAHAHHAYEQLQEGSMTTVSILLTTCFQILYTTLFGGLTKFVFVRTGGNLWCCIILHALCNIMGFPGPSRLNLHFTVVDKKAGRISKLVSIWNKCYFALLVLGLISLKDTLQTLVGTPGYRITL
Yeast UUG start: yeast start codon fidelity modulation | 0.13% of 350,000 active | activity score, % at 18.7 µM | AID 602363 | S. cerevisiae UUG-firefly luciferase reporter, luminescence/redox ratio;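 active = replicate mean at a twofold rise or more, about +100% in these data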;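 also: firefly luciferase made from a UUG start codon reports start codon fidelity; reporter light over untreated wells divided by growth signal over untreated wells; some hits fall short of that in this replicate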
HIV Env fusion: blocks HIV Env-driven cell-cell fusion. 1.1% of 360,000 active. AID 651610. HeLa-JRFL Env/CEM21 cell fusion, luciferase. inhibition, % at 12.3 µM;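 active = mean replicate inhibition score of at least 50 and every replicate individually at or above 50; inconclusive = only one of the two criteria met; inactive = mean below 50 and not all replicates reaching 50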;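 also: 0% = plate neutral controls and 100% = maraviroc near 300 nM; one replicate is shown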
CSC inhib: cancer stem cell inhibition. cancer stem cell-like cells viability, luminescence. inhibition, % at 7.5 µM. 1.1% of 300,000 active. AID 2717;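 active = mean at 75% or more and at least half the replicates too; inconclusive = mean and replicates disagree; tested in HMLE shEcad cells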;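 also: 0% = median of negative and 100% = median of positive control wells; the first replicate is given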
MT1-MMP act inh: inhibitors of human MT1-MMP activation; HT1080 RFP-PRO-GFP cells, GFP/RFP ratio fluorescence, overnight; percent of plate control window, DMSO zero; GFP/RFP ratio change, % at 20 µM; 0.061% of 360,000 active; AID 651647;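 active = GFP/RFP ratio change of at least 30% with cell ATP level not reduced by more than half and red fluorescence within 50% of control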; also: strong numbers were not always called active
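Assay system: HT1080 cells carrying an RFP-PRO-GFP reporter | Dosing: Single dose of 20 µM compound, 1% DMSO final | Incubation: Cells overnight before dosing, compound overnight, 37 °C, 5% CO2 | Evaluation: GFP/RFP fluorescence ratio | Control set: DMSO and RFP-L50D-GFP cell wells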
eIF4H inh: inhibitors of RNA binding by human eIF4H. Q15056. eIF4H fluorescence polarization binding assay. inhibition, % at 35 µM. 0.94% of 290,000 active. AID 2012;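 active = 50% or more with normal probe brightness, or confirmed in later tests; inconclusive = above 50% with abnormal brightness, or retests that disagree; inactive = below 50% or failed in later tests; about a fifth of its hits are not listed in these tables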;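 also: calls also rest on retests at 20 µM and on dose response follow-up; 0% = protein and probe with vehicle and 100% = probe without protein; strong numbers were not always called active; many hits fall short of the cut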
eIF4H inh retest: also measured in eIF4H inh; calls as there; inhibition, %; compound at 20 µM; confirmation average;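 mean of two retest wells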
PABP polyA inh retest: recorded beside PABP polyA inh, whose call it bears; inhibition, %; compound at 20 µM; confirmation repeats;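 mean of two retest wells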
MT1-MMP act inh RFP: also measured in MT1-MMP act inh; calls as there; RFP signal change, %; measured here: RFP expression control read;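 0 = vehicle wells; hits needed this value within 50% of zero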
Numbers without * were called inactive; i = inactive; ? = inconclusive; . = no result given; & = joins results of further samples. This is a subset; rates above refer to the full screens.

SMILES	PABP polyA inh	Rce1 inh	Yeast UUG start	HIV Env fusion	CSC inhib	MT1-MMP act inh	MT1-MMP act inh RFP	eIF4H inh	others
COCCN(CCOC)C(=O)c1ccc(NS(=O)(=O)c2ccc3[nH]c(=O)[nH]c3c2)cc1	24	i	-15	12	-15	-1	4	-15
O=C(CSc1ncnc2scc(-c3ccccc3)c12)NC1CCS(=O)(=O)C1 (stereo not drawn)	4	.	.	2	2	0	1	-1
COc1ccc(S(=O)(=O)Nc2cc3c4c(oc3c3ccccc23)CCCC4=O)cc1	3	.	1	.	59	-1	-16	-2
COC(=O)C1=C(C)N(Cc2ccco2)C(=O)N[C@@H]1c1ccc(Br)cc1	.	i	-16	.	1	-3	2	.
Cc1nn(Cc2ccc(Cl)cc2)c(Cl)c1/C=N/NC(=O)CNc1ccccc1F	15	i	.	-7	?	-2	-5	1
CCOC(=O)Cc1csc(SCC(=O)Nc2sc3c(c2C(N)=O)CCC3)n1	38	i	-3	.	9	-6	6	48
CN(CC(=O)Nc1ccccc1Cl)C(=O)COC(=O)CCN1C(=O)C2CC=CCC2C1=O (stereo not drawn)	.	i	.	9	-5	0	1	.
COC(=O)C1=CN(C2CCCCC2)C=C(C(=O)OC)C1c1ccc2c(c1)OCO2	-2	i	0	7	16	-23	-17	-18
COc1ccc(/C=C/CN2CCCC(CO)(Cc3cccc(Cl)c3)C2)cc1 (stereo not drawn)	-5	i	-20	17	3	10	0	-7
Cc1ccc(NC(=O)Cn2nc(C(=O)Nc3ccc(C)cc3)ccc2=O)cc1	12	i	19	8	-10	4	2	-1
O=C(Nc1ccc(S(=O)(=O)N2CCOCC2)cc1)c1c(F)cccc1F	-6	i	-6	1	-9	-2	2	-11
COC(=O)CCC(=O)NNC(=O)Cc1ccccc1	-1	i	.	9	.	-5	0	7
O=C(O)CCCCNS(=O)(=O)c1ccc(Cl)c(C(F)(F)F)c1	-8	i	-21	-53	-20	3	1	-16
Cc1csc2nc(CSc3nncn3-c3ccccc3)c(Br)n12	-12	i	-8	.	-14	-1	10	-1
Cc1noc(C)c1NC(=O)N(C)C[C@H]1Oc2c(NC(=O)c3ccncc3)cccc2C(=O)N([C@H](C)CO)C[C@@H]1C	.	.	-11&0	16	6	12	14	.
CC(=O)NNC(=O)CCn1c2c(c3ccccc31)CCCC2	4	i	0	-2	-4	-5	-1	0
CN(C)CCC1(c2ccccc2)CCN(C)C1=O (stereo not drawn)	.	.	-6	-3	.	-4	0	.
CC1CC(C)CN(C(=O)CSc2nnc(N)s2)C1 (stereo not drawn)	9	i	-13	-5	0	0	1	16
Cc1cc(S(=O)(=O)NCC(c2ccccc2)c2ccccc2)ccc1-n1cnnn1	0	i	-6	?	-6	2	-2	-13
COc1ccc(C2NC(=O)C(C#N)=C(S)N2c2ccc(C)cc2)cc1OC (stereo not drawn)	0	i	.	24	8	-3	3	-7
Cn1c(Cc2csc(N)n2)nnc1SCC(=O)NCc1ccccc1	-8	i	-33	.	2	0	0	4
CCN(CC)C(=O)C1=C(C)N(Cc2ccc(OC)cc2)C(=O)C(CC(=O)NC(c2ccccc2)c2ccccc2)C1 (stereo not drawn)	.	.	6	-24	.	1	-4	.
COc1ccc(Oc2nccc(-c3ccc(Cl)cc3)n2)cc1	35	i	-13	.	-18	0	0	13
COCCNC(=O)c1nn2c(C(F)(F)F)cc(-c3ccccc3)nc2c1Cl	1	i	-6	16	-18	-2	3	-2
COc1cccc(C2c3[nH]c4ccccc4c3CCN2C(=O)Cn2cncn2)c1OC (stereo not drawn)	2	i	-5	3	-24	-4	-4	-7

For reference, 2 of the compounds above.
SMILES	PABP polyA inh	Rce1 inh	Yeast UUG start	HIV Env fusion	CSC inhib	MT1-MMP act inh	MT1-MMP act inh RFP	eIF4H inh	others
COCCN(CCOC)C(=O)c1ccc(NS(=O)(=O)c2ccc3[nH]c(=O)[nH]c3c2)cc1	24	i	-15	12	-15	-1	4	-15
O=C(CSc1ncnc2scc(-c3ccccc3)c12)NC1CCS(=O)(=O)C1 (stereo not drawn)	4	.	.	2	2	0	1	-1

Following part:
SMILES	PABP polyA inh	Rce1 inh	Yeast UUG start	HIV Env fusion	CSC inhib	MT1-MMP act inh	MT1-MMP act inh RFP	eIF4H inh	others
COc1ccc(NC(=O)c2cnc3n(c2=O)CCS3)cc1OC	-5	i	-9	10	-4	2	3	-6
Cc1cc(C)c2c(N)c(C(=O)C(C)(C)C)sc2n1	79	i	-3	16	3	1	1	-7	eIF4H inh retest=2;PABP polyA inh retest=8
CCC1CCc2sc(C(=O)O)cc2C1 (stereo not drawn)	-8	i	-13	.	-18	3	-1	2
Cc1ccc(C(=O)NC2CCCCC2)cc1S(=O)(=O)N1CCCC1	-3	i	-11	-7	-2	2	-1	-2
COc1cccc(COC(=O)C2CCN(S(=O)(=O)c3cccs3)CC2)c1OC	.	i	3	-2	-15	3	4	.
CCOc1cc(S(=O)(=O)Nc2ccncc2)ccc1F	-5	i	-10	9	-2	2	1	-8
CCc1ccccc1NC(=O)CSc1nc(C)c(C)o1	2	i	-3	11	.	1	1	-6
O=C(Nc1ccccc1Cl)N1CCCN(c2nc(-c3ccccc3)ns2)CC1	-1	i	-5	39	14	0	-25	1
CCCn1c(C(C)Nc2nc(-c3cc(Cl)c(N)c(Cl)c3)cs2)nc2cc(Cl)c(N3CCCCC3)cc21 (stereo not drawn)	-8	i	-16	.	-2	-21	0	2
CC(C)(C)NC(=O)C1c2ccccc2Oc2ccccc21	0	i	-9	-6	-27	4	4	-1
COC(=O)c1cc(NS(=O)(=O)c2ccc(NC(C)=O)cc2)cc(C(=O)OC)c1	-2	i	-4	11	-15	6	4	-11
CCCCc1ccc(NC(=S)NCc2cccc(OC)c2)cc1	-2	i	-18	12	13	0	-3	6
Cc1ccccc1NC(=O)c1cc2ccccc2o1	8	i	-1	-108	-12	2	1	1
Cc1nc(-c2ccc(F)cc2)c(CC(=O)N(C)CC(=O)Nc2ccccc2Br)s1	.	i	1	-5	7	9	-2	.
CNC[C@H](CC1CCCCC1)NC[C@H](CO)NCC1(c2ccccc2)CC1	-12	i	8	46	17	5	5	-9
CCOc1ccc(CC2c3cc(OCC)c(OCC)cc3CCN2C(=O)c2cc(OC)c(OC)c(OC)c2)cc1OCC (stereo not drawn)	6	i	-4	-56	-4	0	-6	-7
Clc1ccc(CN2CCC(Cc3ccccc3)CC2)cc1	3	i	.	-11	31	1	0	4
C=CCNC(=O)CC(=O)N/N=C/c1ccccc1F	5	i	-1	.	8	0	3	-2
CCCCC(=O)NC(NC(=O)CCCC)c1ccc(OCCC)c(OC)c1	-11	i	-7	-11	7	4	4	-2
O=C(COC(=O)c1cccc(S(=O)(=O)N2CCc3ccccc32)c1)Nc1ncc(Cl)cc1Cl	1	i	.	.	-15	-1	4	-3
O=c1[nH]nc2c3ccccc3cnn12	4	i	-19	.	-10	0	1	-9
Cc1ccc(C)c(N2CCN(CCCNC(=O)Cn3cc4c(n3)CCC(C)C4)CC2)c1 (stereo not drawn)	-4	i	-8	22	.	5	3	-1
CN1CCN(Cc2oc(CO)cc(=O)c2O)CC1	-8	i	0	-12	-5	-1	4	1
CCOC(=O)C1=CNS(=O)(=O)NC1c1ccc2ccccc2c1 (stereo not drawn)	.	.	-14	-10	.	1	4	.
Cc1ccc(C(=O)N2CCN(C(=O)CN3CCCC3)C2)cc1	0	.	-7	.	12	3	5	3
Additional records.
SMILES	PABP polyA inh	Rce1 inh	Yeast UUG start	HIV Env fusion	CSC inhib	MT1-MMP act inh	MT1-MMP act inh RFP	eIF4H inh	others
CCCCN(C)CCCNC(=O)CCn1nc(-c2ccccc2)ccc1=O	-7	i	.	.	-1	0	0	-1
COc1ccc(Cl)cc1NC(=O)CN(C)C(=O)C1CCN(C(=O)Nc2ccccc2)CC1	.	.	8	-6	.	-5	-2	.
C=CCN(Cc1cc(OC)ccc1OC)C(=O)c1cc2ccc(OC)cc2[nH]1	4	i	2	29	50	-2	-6	4
O=C1/C(=C\c2ccc(-c3ccccc3Cl)o2)SC(=S)N1CC1CCCO1 (stereo not drawn)	?	i	-22	?	3	-147	-4	?
COc1ccc(OC)c(C(c2nnnn2C2CCCC2)N2CCN(c3ccccc3F)CC2)c1 (stereo not drawn)	43	i	-12	.	9	-8	-8	2
O=C(NCC1CCCO1)C1CCN(S(=O)(=O)N2CCCC2)CC1 (stereo not drawn)	0	i	.	.	-6	-8	0	-1
Cc1ccc(C(=O)N/C(=C\c2ccc(Br)cc2)c2nc(=S)[nH][nH]2)cc1	5	i	-15	.	17	3	1	-4
CCN(CC(=O)NCc1cccs1)S(=O)(=O)c1ccc([N+](=O)[O-])cc1	4	i	.	-7	-15	-2	-1	9
CCn1c(NCc2ccco2)nc2c1c(=O)n(C)c(=O)n2C	9	i	2	6	0	5	0	-8
COc1ccc(CCNc2oc(-c3cccc4ccccc34)nc2P(=O)(OC)OC)cc1OC	7	i	-18	69*	-4	-2	-5	-10
COc1cccc(C2=NN(C(=O)CCCC(=O)O)C(c3cccs3)C2)c1 (stereo not drawn)	-4	i	2	3	-2	0	2	1
COc1ccnc(Nc2ccc(C)c(C)c2)c1C#N	3	i	-10	-9	.	-2	5	5
O=C(Cn1cnc2c(oc3ccccc32)c1=O)NCc1ccccc1	5	i	4	-29	-9	3	4	1
Cc1c(CC(=O)O)c(=O)oc2c(C)c3occ(-c4ccccc4)c3cc12	35	i	-16	11	-4	2	2	0
CN(C)S(=O)(=O)Oc1ccsc1C(=O)Nc1cccc(Cl)c1	4	i	-20	31	-1	1	1	9
O=C(O)CCc1nn2c3ccccc3n(CC(=O)c3ccccc3)c2nc1=O	10	i	.	-9	-2	0	-1	2
C[C@@H]1CN([C@@H](C)CO)C(=O)c2cc(N(C)C)ccc2O[C@@H](C)CCCCO[C@@H]1CN(C)S(=O)(=O)c1cccs1	.	.	16&12	12	.	-1	0	.
O=C(CN1C(=O)COc2ccc(Cl)cc21)N1CCOCC1	-2	i	-2	-25	11	0	3	-10
Cc1cc(C)cc(NS(=O)(=O)c2csc(C(N)=O)c2)c1	0	i	.	-8	-10	5	-1	-13
CCOC(=O)C1CCCN(C(=O)c2cn(C)c(=O)c3cc(OC)c(OC)cc23)C1 (stereo not drawn)	-10	i	-4	-8	-8	6	6	-8
CCn1cc(C(=O)O)c(=O)c2cnc(N3CCN(C(=S)NC(=O)c4ccccc4Cl)CC3)nc21	22	i	.	.	8	.	.	5
O=C1c2cccnc2Nc2ccccc2N1CCCF	0	i	-18	.	-8	-2	1	-6
COc1cccc2cc(C(=O)Nc3ccccc3C)/c(=N/NS(=O)(=O)c3ccccc3)oc12	-2	i	-11	-3	-14	3	6	-6
COc1ccc(C2CC(=O)Nc3cc(OC)c(OC)cc32)cc1Br (stereo not drawn)	4	i	25	3	0	-1	-4	6
CCOC(=O)N1CCC(NC(=O)c2cnn3ccccc23)CC1	-1	i	-14	-15	-10	2	4	-8
O=C(O)/C=C/c1ccc2noc(-c3ccccc3)c2c1	8	i	-17	-4	-60	-9	-10	26
CCCOc1cccc(C(=O)N(Cc2cccs2)C2CCS(=O)(=O)C2)c1 (stereo not drawn)	-5	i	9	21	-2	1	1	-1
Cc1cccc(Cc2c(C)nc3nc(SCC(=O)NCc4ccco4)nn3c2C)c1	-4	i	-14	8	-2	1	1	0
CC(C)CCn1cnc2c(sc3nc4c(cc32)CSC(C)(C)C4)c1=O	15	i	.	-23	-11	6	-12	4
Cc1c(Cc2ccccc2)c(=O)oc2c(C)c(OCC(=O)NCc3ccccn3)ccc12	-18	i	-8	-8	0	7	-2	-22

Screening results (PubChem BioAssay)
